# UUG fidelity: yeast start codon fidelity modulation; S. cerevisiae UUG-firefly luciferase reporter, luminescence/redox ratio; 0.13% of 350,000 active; activity score, % at 18.7 µM; AID 602363;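 active means replicate mean at a twofold rise or more, about +100% in these data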;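 further: firefly luciferase made from a UUG start codon reports start codon fidelity; reporter light over untreated wells divided by growth signal over untreated wells; some hits fall short of that in this replicate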
# Numbers without * were called inactive.
UUG fidelity	SMILES
7	C[C@H](CO)N1C[C@H](C)[C@@H](CN(C)Cc2ccc(C(=O)Nc3ccccc3N)cc2)OCc2cn(nn2)CCCC1=O
4	C[C@H]1CN([C@@H](C)CO)C(=O)c2cccc(N(C)C)c2O[C@@H]1CN(C)C(=O)Nc1ccc(F)cc1
21	O=C(Nc1cccc(Cl)c1)N1C[C@@H]2[C@H](c3ccccc31)[C@@H](CO)N2CC1CCOCC1
7	COc1ccc(C#Cc2ccc([C@H]3[C@@H](CO)N4CCCCN(C(=O)Nc5ccccc5F)C[C@H]34)cc2)cc1
28	COc1ccc(S(=O)(=O)Nc2cccc3c2O[C@@H](CN(C)S(=O)(=O)c2c(C)noc2C)[C@@H](C)CN([C@H](C)CO)C3=O)cc1
30	CO[C@H]1CN(C)C(=O)c2cc(NC(=O)c3ccc4c(c3)OCO4)ccc2OC[C@@H](C)N(CCC(F)(F)F)C[C@@H]1C
-5	CO[C@H]1CN(C)C(=O)c2ccc(NC(C)=O)cc2OC[C@H](C)N(Cc2cc(F)ccc2F)C[C@@H]1C
2	O=S(=O)(c1ccccc1)N1CCCCN2[C@H](CO)[C@@H](c3ccc(-c4cncnc4)cc3)[C@@H]2C1
1	CCC(=O)N1C[C@@H]2[C@H](c3ccccc31)[C@H](CO)N2CC1CCCC1
48	C[C@@H](O)C#Cc1ccc([C@@H]2[C@H](CO)N3CCCCN(CC4CC4)C[C@@H]23)cc1
-3	C[C@H]1CN([C@@H](C)CO)C(=O)c2c(c3ccccc3n2C)-c2ccccc2CO[C@@H]1CN(C)Cc1ccncc1
-6	O=C(CN1CCOCC1)NC[C@H]1N[C@H](CO)[C@@H]1c1ccc(-c2ccccc2)cc1

# 3 compounds already listed, ordered by the number in UUG fidelity, falling.
UUG fidelity	SMILES
7	COc1ccc(C#Cc2ccc([C@H]3[C@@H](CO)N4CCCCN(C(=O)Nc5ccccc5F)C[C@H]34)cc2)cc1
1	CCC(=O)N1C[C@@H]2[C@H](c3ccccc31)[C@H](CO)N2CC1CCCC1
-5	CO[C@H]1CN(C)C(=O)c2ccc(NC(C)=O)cc2OC[C@H](C)N(Cc2cc(F)ccc2F)C[C@@H]1C

# (continued)
UUG fidelity	SMILES
-12	Cc1ccc(S(=O)(=O)N(C)C[C@H]2Oc3ccc(NC(=O)Nc4ccc(F)cc4)cc3C(=O)N([C@@H](C)CO)C[C@H]2C)cc1
-16	COc1ccc(NC(=O)Nc2ccc3c(c2)C(=O)N([C@H](C)CO)C[C@H](C)[C@H](CN(C)C(=O)Nc2c(C)noc2C)O3)cc1
-1	C[C@H]1CN([C@@H](C)CO)C(=O)c2cccc(NS(=O)(=O)c3ccccc3)c2O[C@H]1CN(C)CC1CC1
15	CCCNC(=O)Nc1ccc2c(c1)OC[C@H](C)N(C(=O)CC)C[C@@H](C)[C@@H](OC)CN(C)C2=O
-6	CNC[C@H]1Oc2c(NS(=O)(=O)c3ccc(C)cc3)cccc2C(=O)N([C@H](C)CO)C[C@@H]1C
-17	OC[C@@H]1[C@@H]2c3ccccc3NC[C@@H]2N1CC1CCOCC1
6	O=C(C[C@@H]1CC[C@@H]2[C@H](COC[C@H](O)CN2Cc2cccc(C(F)(F)F)c2)O1)NCc1ccc(F)cc1
11	CCCNC(=O)N1[C@H](CNC(=O)c2ccccc2)[C@@H](c2ccccc2)[C@@H]1CO
0	COc1ccc(S(=O)(=O)NC(=O)C2(C)CCN2C(=O)CCc2ccc(Cl)cc2Cl)cc1 (stereo not given)
19	O=C(c1ccncc1)N1C[C@@H]2[C@H](c3ccccc31)[C@H](CO)N2C(=O)Nc1cccc(F)c1
1	CN(C)C(=O)c1cccc(-c2ccc3c(c2)[C@@H]2[C@@H](CCN2Cc2nccs2)[C@@H](CO)N3)c1
-3	Cc1ccc(S(=O)(=O)N2CC[C@@H]3[C@H]2c2cc(C#Cc4ccc(F)cc4)ccc2N[C@@H]3CO)cc1
-4	C[C@H]1CN([C@@H](C)CO)C(=O)c2cccc(NC(=O)Nc3ccc(F)cc3)c2O[C@@H]1CN(C)Cc1ccc2c(c1)OCO2
-5	COCC(=O)NC[C@H]1N[C@H](CO)[C@H]1c1ccc(-c2ccccc2F)cc1
1	CO[C@@H]1CN(C)C(=O)c2cc(NC(=O)Nc3ccccc3)ccc2OC[C@H](C)N(C(=O)CN(C)C)C[C@@H]1C
12	Cc1cccc(S(=O)(=O)N2C[C@H]3[C@@H](c4ccccc42)[C@H](CO)N3Cc2ccc3c(c2)OCO3)c1
-4	C[C@H]1CN([C@@H](C)CO)C(=O)c2cc(NC(=O)CCCCCC(=O)Nc3ccccc3N)ccc2O[C@H]1CN(C)S(=O)(=O)c1cn(C)cn1
-3	OC[C@@H]1[C@@H](c2ccc(C#CC3(O)CCCC3)cc2)[C@@H]2CN(Cc3cccnc3)CCCCN12
4	COc1cccc(S(=O)(=O)N2CCCCN3[C@H](C2)[C@@H](c2ccc(-c4cccnc4)cc2)[C@@H]3CO)c1
-4	Cc1ccc(S(=O)(=O)Nc2ccc3c(c2)CC(=O)N([C@@H](C)CO)C[C@@H](C)[C@@H](CN(C)Cc2ccccc2)O3)cc1
-11	CCS(=O)(=O)Nc1ccc2c(c1)C(=O)N(C)[C@H]1CC[C@@H](CC(=O)NCc3ccc(OC)cc3)O[C@@H]1CO2
4	CN1C[C@H]2[C@@H](c3ccccc31)[C@@H](CO)N2S(=O)(=O)c1ccccc1
-14	O=C(Nc1ccccc1Cl)N1C[C@H]2[C@@H](c3ccccc31)[C@@H](CO)N2Cc1ccccc1
16	CO[C@H]1CN(C)C(=O)c2cc(NS(C)(=O)=O)ccc2OC[C@@H](C)N(C(=O)C2CC2)C[C@@H]1C
-6	Cc1cccc(S(=O)(=O)N2CCCCN3[C@H](CO)[C@H](c4ccc(-c5ccccc5)cc4)[C@H]3C2)c1
9	COc1cccc(-c2ccc([C@@H]3[C@@H](CO)N4CCCCN(S(=O)(=O)c5cn(C)cn5)C[C@@H]34)cc2)c1
-5	C[C@@H]1CN([C@H](C)CO)C(=O)c2cc(NC(=O)CCN3CCOCC3)ccc2O[C@H]1CN(C)S(=O)(=O)c1ccccc1
-23	O=S(=O)(c1cccc(F)c1)N1CC[C@H]2[C@H](CO)Nc3ccc(C#Cc4ccccc4F)cc3[C@H]21
19	O=C(c1cccc(F)c1)N1CCCCN2[C@@H](CO)[C@@H](c3ccc(C#CC4(O)CCCC4)cc3)[C@@H]2C1
-5	COc1ccccc1C#Cc1ccc([C@@H]2[C@H]3CN(S(C)(=O)=O)CCCCN3[C@H]2CO)cc1
5	CC(=O)N(C)C[C@H]1[C@H](c2ccc(C3=CCCC3)cc2)[C@H](CO)N1CC1CC1
0	CCCN1C[C@@H](C)[C@@H](OC)CN(C)C(=O)c2ccc(NC(=O)C3CC3)cc2OC[C@H]1C
-9	CNC[C@@H]1Oc2ccc(NS(=O)(=O)c3ccc(OC)cc3)cc2C(=O)N([C@H](C)CO)C[C@@H]1C
-9	CCS(=O)(=O)N1CCCCN2[C@H](CO)[C@H](c3ccc(-c4ccccc4F)cc3)[C@H]2C1
156*	CN(C[C@H]1[C@H](c2ccccc2)[C@@H](CO)N1C(=O)c1ccccc1)C(=O)C1CC1
-1	O=S(=O)(Cc1ccccc1)N1CCCCN2[C@H](C1)[C@@H](c1ccc(-c3cncnc3)cc1)[C@@H]2CO

# Looked up by compound from above:
UUG fidelity	SMILES
48	C[C@@H](O)C#Cc1ccc([C@@H]2[C@H](CO)N3CCCCN(CC4CC4)C[C@@H]23)cc1
7	COc1ccc(C#Cc2ccc([C@H]3[C@@H](CO)N4CCCCN(C(=O)Nc5ccccc5F)C[C@H]34)cc2)cc1
0	COc1ccc(S(=O)(=O)NC(=O)C2(C)CCN2C(=O)CCc2ccc(Cl)cc2Cl)cc1 (stereo not given)
-14	O=C(Nc1ccccc1Cl)N1C[C@H]2[C@@H](c3ccccc31)[C@@H](CO)N2Cc1ccccc1
1	CO[C@@H]1CN(C)C(=O)c2cc(NC(=O)Nc3ccccc3)ccc2OC[C@H](C)N(C(=O)CN(C)C)C[C@@H]1C

# (more compounds)
UUG fidelity	SMILES
-5	CC(=O)NC[C@H]1[C@@H](c2ccccc2)[C@H](CO)N1C(=O)Cc1cccnc1
27	CCN(C[C@@H]1N[C@H](CO)[C@H]1c1ccc(-c2ccc(F)cc2)cc1)C(=O)COC
-17	OC[C@H]1[C@H](c2ccc(-c3cccnc3)cc2)[C@@H]2CN(CC3CC3)CCCCN12
12	O=C(C1CCCCC1)N1[C@H](CO)[C@@H]2c3ccccc3NC[C@@H]21
5	CCCC(=O)Nc1ccc2c(c1)OC[C@H](C)N(Cc1ccccc1F)C[C@H](C)[C@@H](OC)CN(C)C2=O
0	N#Cc1cccc(-c2ccc([C@@H]3[C@@H](CO)N4CCCCN(C(=O)Nc5cccc(F)c5)C[C@@H]34)cc2)c1
10	CCCNC(=O)C[C@H]1CC[C@H]2[C@@H](COC[C@@H](O)CN2S(=O)(=O)c2ccccc2F)O1
16	O=C(Nc1ccccc1F)N1C[C@@H]2[C@H](c3ccccc31)[C@@H](CO)N2C(=O)c1ccccn1
15	C[C@@H]1CN([C@H](C)CO)C(=O)Cc2cc(NC(=O)CCN3CCOCC3)ccc2O[C@H]1CN(C)S(=O)(=O)c1ccc(F)cc1
2	CC(C)NC(=O)N(C)C[C@H]1Oc2ccc(NC(=O)Cc3ccccc3)cc2C(=O)N([C@@H](C)CO)C[C@H]1C
41	CN1CCCCN2[C@H](CO)[C@H](c3ccc(Br)cc3)[C@@H]2C1
12	C/C=C/c1ccc([C@@H]2[C@H](CO)N3CCCCN(S(=O)(=O)c4ccc(OC)cc4)C[C@@H]23)cc1
15	COCC(=O)N1C[C@@H](C)[C@H](OC)CN(C)C(=O)c2ccc(NC(=O)c3ccccc3)cc2OC[C@H]1C
-10	C[C@@H]1CN([C@H](C)CO)C(=O)c2cccc(NC(=O)Nc3ccc(F)cc3)c2O[C@@H]1CN(C)Cc1ccc(Oc2ccccc2)cc1
7	C[C@@H]1CN([C@H](C)CO)C(=O)c2cccc(NS(=O)(=O)c3ccccc3)c2O[C@H]1CN(C)C(=O)NC1CCCCC1
17	CN(C)C(=O)C[C@H]1CC[C@H]2[C@@H](COc3ccc(NC(=O)Nc4cccc(Cl)c4)cc3C(=O)N2C)O1
-6	CN(C[C@H]1N[C@@H](CO)[C@@H]1c1ccc(C2=CCCC2)cc1)C(=O)c1ccncc1
26	Cc1ccc(-c2ccc([C@H]3[C@H]4CN(S(=O)(=O)c5ccccc5C)CCCCN4[C@H]3CO)cc2)cc1
-1	C[C@@H]1CN([C@H](C)CO)C(=O)c2cccc(NS(=O)(=O)c3cccs3)c2O[C@@H]1CN(C)C
4	COCCNC[C@H]1[C@H](c2ccccc2)[C@H](CO)N1c1nc(C)c(C)s1
-6	CO[C@H]1CN(C)C(=O)c2ccc(NS(C)(=O)=O)cc2OC[C@H](C)N(C(=O)CC2CC2)C[C@H]1C
-10	O=C(CN1CCOCC1)N1CCCCN2[C@H](CO)[C@@H](c3ccc(-c4ccccc4F)cc3)[C@H]2C1
-13	O=C(C[C@@H]1C[C@H]2c3cc(NC(=O)CC4CC4)ccc3O[C@H]2[C@@H](CO)O1)NCc1cccnc1
1	CN1c2ccc(-c3ccccc3F)cc2[C@@H]2[C@@H](CCN2C(=O)Nc2ccc(F)cc2)[C@@H]1CO

# An excerpt of these results, as comma-separated lines:
canonical_smiles,UUG fidelity
O=C(CN1CCOCC1)NC[C@H]1N[C@H](CO)[C@@H]1c1ccc(-c2ccccc2)cc1,-6
Cc1ccc(S(=O)(=O)N(C)C[C@H]2Oc3ccc(NC(=O)Nc4ccc(F)cc4)cc3C(=O)N([C@@H](C)CO)C[C@H]2C)cc1,-12
COc1ccc(NC(=O)Nc2ccc3c(c2)C(=O)N([C@H](C)CO)C[C@H](C)[C@H](CN(C)C(=O)Nc2c(C)noc2C)O3)cc1,-16

# More compounds follow:
UUG fidelity	SMILES
19	CCC(=O)N1C[C@H](C)[C@H](OC)CN(C)C(=O)c2ccc(NC(=O)Nc3ccccc3)cc2OC[C@@H]1C
-20	CN(C)C(=O)C[C@H]1CC[C@@H]2[C@H](COC[C@H](O)CN2CC2CCOCC2)O1
-16	C[C@@H]1CN([C@H](C)CO)C(=O)c2cc(NC(=O)Nc3ccc(C(F)(F)F)cc3)ccc2O[C@H]1CN(C)C(=O)Nc1ccc2c(c1)OCO2
6	O=C(C1CCOCC1)N1C[C@H]2[C@@H](c3ccccc31)[C@H](CO)N2C(=O)Cc1ccccn1
-10	CN1c2ccc(-c3ccccc3F)cc2[C@H]2[C@H](CCN2C(=O)c2cccc(F)c2)[C@H]1CO
0	CO[C@@H]1CN(C)C(=O)c2cc(NC(=O)C3CCC3)ccc2OC[C@@H](C)N(C(=O)CN(C)C)C[C@@H]1C
-2	C[C@H]1CN([C@@H](C)CO)C(=O)CCCn2cc(nn2)CO[C@H]1CN(C)C(=O)CCCN(C)C
-19	Cc1noc(C)c1NC(=O)Nc1cccc2c1O[C@@H](CN(C)Cc1ccc(C(=O)O)cc1)[C@@H](C)CN([C@@H](C)CO)C2=O
7	CC(C)C(=O)Nc1ccc2c(c1)C(=O)N(C)[C@@H]1CC[C@H](CC(=O)NC3CCCC3)O[C@H]1CO2
-11	CNC[C@@H]1Oc2ccc(NS(=O)(=O)c3ccc(Cl)cc3)cc2CC(=O)N([C@H](C)CO)C[C@@H]1C
2	CC(=O)N1[C@@H]2CN(S(=O)(=O)c3ccccc3)c3ccccc3[C@@H]2[C@@H]1CO
-6	O=C(C[C@@H]1CC[C@H]2[C@@H](COC[C@H](O)CN2C(=O)c2ccncc2)O1)NCc1cc(F)cc(F)c1
-3	CC(=O)N1[C@H](CNC(=O)CN(C)C)[C@@H](c2ccc(C3=CCCC3)cc2)[C@@H]1CO
11	CC(C)NC(=O)N(C)C[C@@H]1Oc2ccc(NS(=O)(=O)c3ccccc3)cc2C(=O)N([C@@H](C)CO)C[C@H]1C
-6	C[C@H]1CN([C@@H](C)CO)C(=O)Cc2cc(NC(=O)CCN3CCOCC3)ccc2O[C@@H]1CN(C)Cc1ccc(Cl)c(Cl)c1
4	COc1cccc(S(=O)(=O)N2CCCCN3[C@H](CO)[C@H](c4ccc(C#CCC(C)C)cc4)[C@H]3C2)c1
16	CCCC(=O)Nc1ccc2c(c1)C(=O)N(C)[C@H]1CC[C@H](CC(=O)NCC3CC3)O[C@@H]1CO2

# From PubChem BioAssay

# The list is partial; the hit share may differ from the screen's.
